Screens deposited in PubChem by National Center for Advancing Translational Sciences (NCATS).
GCN5L2 inh: qHTS Assay for Inhibitors of GCN5L2 | Histone acetyltransferase KAT2A (Homo sapiens), Q92830 | GCN5L2 HAT assay, ThioGlo1 CoA-SH fluorescence | Potency, µM (highest dose often 58.9 µM), inactives show at the highest dose activity change, negative = inhibition, most hits filed as inhibitors | actives 0.21% (n = 390,000); active = well fitted inhibition curve with a large enough effect; inconclusive = small, poorly fitted or top-dose-only effect, or another doubt; inactive = no such curve, though single readings can be large or run the other way
Target sequence (Q92830 whole entry, looked up): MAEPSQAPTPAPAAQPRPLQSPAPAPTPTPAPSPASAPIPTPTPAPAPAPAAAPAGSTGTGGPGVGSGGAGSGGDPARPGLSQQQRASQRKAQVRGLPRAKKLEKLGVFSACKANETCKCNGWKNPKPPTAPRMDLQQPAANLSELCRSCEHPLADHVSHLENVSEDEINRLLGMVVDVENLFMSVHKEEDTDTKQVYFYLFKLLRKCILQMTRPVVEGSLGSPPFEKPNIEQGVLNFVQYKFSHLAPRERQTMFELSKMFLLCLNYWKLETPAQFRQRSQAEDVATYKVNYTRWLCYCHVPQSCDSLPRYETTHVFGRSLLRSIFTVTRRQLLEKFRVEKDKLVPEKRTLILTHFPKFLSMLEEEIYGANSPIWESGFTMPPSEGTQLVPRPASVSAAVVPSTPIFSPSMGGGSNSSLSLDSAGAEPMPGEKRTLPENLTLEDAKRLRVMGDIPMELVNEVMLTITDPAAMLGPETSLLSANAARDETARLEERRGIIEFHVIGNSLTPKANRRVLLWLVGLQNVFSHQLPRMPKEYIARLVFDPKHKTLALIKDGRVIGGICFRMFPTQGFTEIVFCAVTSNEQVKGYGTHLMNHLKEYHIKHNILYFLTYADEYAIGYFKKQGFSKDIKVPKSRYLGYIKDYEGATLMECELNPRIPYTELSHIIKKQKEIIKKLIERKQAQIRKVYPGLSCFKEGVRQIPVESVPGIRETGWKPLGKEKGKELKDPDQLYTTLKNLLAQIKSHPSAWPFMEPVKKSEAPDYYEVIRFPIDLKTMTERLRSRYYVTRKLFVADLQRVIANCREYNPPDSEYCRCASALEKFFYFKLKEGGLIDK
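Preincubate 20nM GCN5L2 with compound 15 min, RT → add 50uM ThioGlo1 + 75uM H3(1-25) + 70uM acetyl-CoA → read fluorescence 0 and 20 min. Primary qHTS; fluorescent artifacts likely.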
* = called active by the depositor; ? = inconclusive; [ ] = dose if it differs, or a comment. % is set by controls: 0 for no effect and ±100 for the full control effect; potency is the fitted concentration of half-maximal effect.

SMILES	GCN5L2 inh
CC1CCN(C(=O)C2CCN(S(=O)(=O)c3cccc4nonc34)CC2)CC1	1%
C/C(=N\N=C(N)N)c1cc(Cl)ccc1Cl	-1%
Cc1ccccc1-n1c(=O)cc(N2CCc3ccccc32)[nH]c1=O	-8%
O=C(CCn1c(=O)c2cccn2c2ccc(F)cc21)NCCc1ccccc1Cl	-8%
COCC(C)n1c(C)cc(C(=O)COC(=O)c2cccn2C)c1C (configuration not stated)	-1%
COc1ccccc1NC(=O)COc1ccc(C(=O)NCC2CCCO2)cc1OC (configuration not stated)	-1%
COc1ccc(S(=O)(=O)NCC2CCCN(C(=O)c3cccs3)C2)cc1 (configuration not stated)	-5%
O=C(Nc1cccc(C(=O)N2CCN(c3ccc(F)cc3)CC2)c1)c1nsc2ccccc12	-14%
COc1ccc(C(=O)NNC(=O)CSc2nnc(C(C)C)n2C)cc1	-4%
Cc1ccc(Cl)cc1N(CC(=O)NCc1ccccc1)S(C)(=O)=O	1%
O=C(CS(=O)(=O)c1ccccc1Cl)N1CCOCC1	2%
O=c1c(Cl)c(NCc2ccc(F)cc2Cl)cnn1C12CC3CC(CC(C3)C1)C2	-18%
N#C/C(=N\Nc1ccccc1Cl)C(=O)c1ccccc1	?
CCOC(=O)c1sc(Nc2nc3c(F)cccc3s2)cc1C	-2%
CC(=O)c1cc2ccccc2oc1=O	-16%
CN(C)c1ccc(NS(=O)(=O)c2cc(Cl)ccc2Cl)cc1	25%
Cc1ccc(N2CC(c3nnc(Cc4ccccc4Cl)o3)CC2=O)cc1 (configuration not stated)	6%
Cc1ccccc1OCc1nc(-c2ccc(NC(=O)c3cccs3)cc2)no1	-4%
COc1ccc(NC(=O)CSc2nnnn2-c2ccc(OC)cc2)cc1	-3%
COc1ccc(-n2c(SCC(N)=O)nc3c(oc4ccccc43)c2=O)cc1	-7%
O=[N+]([O-])c1ccc(/C=[N+](\[O-])CCO)o1	-4%
COc1ccc(C2CC(c3ccccc3OC(C)=O)=NN2C(C)=O)cc1 (configuration not stated)	-3%
CCCOc1ccc(OCCCCNC(C)CC)cc1 (configuration not stated)	-1%
COc1ccc(C(=O)Nc2ccc3c(c2)Cc2ccccc2-3)cc1	7%
Cc1nc(C(=O)NC(C)C)nn1-c1cc(Cl)cc(Cl)c1	-6%
The list goes on.
SMILES	GCN5L2 inh
COc1cccc2c1OCC/C2=N\NC(=O)COc1ccccc1C	1%
Cc1nn(CC(=O)NCc2cccc(F)c2)c(=O)c2c(C)n(-c3ccc(Cl)cc3)nc12	-4%
O=C(CN(C(=O)c1csnn1)c1ccccc1Cl)NC1CCCCC1	-5%
COc1cc(C2C3=C(CCCC3=O)Nc3[nH]n(-c4ccccc4)c(=O)c32)ccc1O (configuration not stated)	-29%
Cc1cc(C)nc(NS(=O)(=O)c2ccc(NC(=O)COc3ccccc3F)cc2)n1	-3%
Cc1nc(NC(=O)CSc2nnc(C3CC3)n2C)sc1C(=O)N(C)C	?
CC(NC(=O)COc1ccccc1-c1ccccc1)c1ccccc1 (configuration not stated)	-10%
COCC(C)n1c(C)cc(C(=O)COC(=O)c2ccc3ncsc3c2)c1C (configuration not stated)	-2%
Cc1cccc(OCC(O)Cn2c(NCc3cccnc3)nc3c2c(=O)[nH]c(=O)n3C)c1 (configuration not stated)	-5%
O=C1CNC(=S)N1Cc1ccccc1	-4%
COc1ccccc1-c1cc(C(=O)N/N=C/c2ccc(C)s2)c2ccccc2n1	-14%
O=C1[C@H]2CC3C=CC2(O3)[C@@H]2OCCCN12 (some centres not stated)	-2%
CC(Nc1ccccc1)C(=O)Nc1ccc(F)cc1 (configuration not stated)	-2%
CCOc1ccccc1NS(=O)(=O)c1c(C(=O)OC)sc2cccc(F)c12	-18%
Cc1noc(/C=C/N(C)C)c1S(=O)(=O)N1CCc2ccccc21	-14%
Cc1c(Br)cc(C(=O)OC2CCN(C)CC2)c(C)c1C	-3%
COc1ccccc1NC(=O)c1ccccc1C(=O)O	-5%
Cc1cc(C(=O)OCC(=O)NC2CCCC(C)C2C)c(C)o1 (configuration not stated)	-4%
Cc1cc([N+](=O)[O-])nn1Cn1nc([N+](=O)[O-])cc1C	-5%
Cc1ccc(-n2cc(-c3ccccc3)[nH]c2=O)cc1F	1%
O=C(Cc1cccs1)Nc1nnc(C2CC2)s1	-8%
CCCn1c(=S)[nH]c2cc(C(=O)N3CCN(c4ccccc4OC)CC3)ccc2c1=O	-1%
COc1ccc(-c2cc3c(=O)n(CC(=O)NC4CCN(Cc5ccccc5)CC4)ncn3n2)cc1	?
O=C(Cn1c(=O)sc2ccccc21)NCc1ccco1	-4%
COC1=CC(=O)CC(C)C12Oc1c(Cl)c(OC)cc(OC)c1C2=O (configuration not stated)	2%
Further records
SMILES	GCN5L2 inh
COc1ccc(Nc2nc(Cl)nc(Nc3ccc(OC)cc3OC)n2)c(OC)c1	0%
COc1ccc(CC2(CO)CCN(C(=O)NCc3ccccc3)CC2)cc1	3%
CCOC(=O)c1ccc(N2C(=O)c3n[nH]c(C)c3C2c2ccc(CC)cc2)cc1 (configuration not stated)	4%
CCOC(=O)c1cnn2c(C(F)(F)F)cc(-c3ccco3)nc12	?
Cc1cccc(NC(=O)c2sc3cccc(Cl)c3c2Cl)c1	-10%
COc1cccc(C(=O)Cn2c(=O)n(CCC(=O)NCC3CCCO3)c(=O)c3cc(OC)c(OC)cc32)c1 (configuration not stated)	-2%
COc1ccc(C2/C(=C(/O)c3ccc4c(c3)CC(C)O4)C(=O)C(=O)N2CCN2CCOCC2)cc1 (configuration not stated)	-8%
Brc1ccc(Cn2c(-c3cncs3)nc3ccccc32)cc1	-4%
Cn1c(=O)oc2cc(S(=O)(=O)N3CCCC(C(=O)Nc4ccc5c(c4)OCCO5)C3)ccc21 (configuration not stated)	-7%
CC(C(=O)NCCCc1ccccc1)c1ccc([N+](=O)[O-])cc1 (configuration not stated)	20%
CCCCCCCCSc1nnc(-c2ccc(OC)cc2)o1	-2%
O=C(Nc1ccc2c(c1)OCO2)C1CCCN1C(=O)Nc1cccc(F)c1 (configuration not stated)	-6%
COCCCNC(=O)c1ccc2nc3ccccc3c(=O)n2c1	-14%
COc1ccc(NC(=O)C2CCCN2C(=O)OCc2ccccc2)c(OC)c1 (configuration not stated)	1%
CCC(CC)NC(=O)c1cc(OC)c(OC)cc1[N+](=O)[O-]	-5%
CCOCCCNC(=O)C(c1ccc(Cl)cc1)N1CCC2(CC1)OCCO2 (configuration not stated)	-5%
Cc1cccc(NC(=O)C2CCCN(S(=O)(=O)c3c(C)[nH]c(=O)[nH]c3=O)C2)c1C (configuration not stated)	-21%
CC(C)NC(=O)c1ccc2c(c1)nc1n2CCCCC1	-5%
CCN(CC)c1cc(C)c2cc(NC(=O)/C=C/c3ccccc3Cl)ccc2n1	-15%
COC(=O)c1ccc(NC(=O)CCc2c(C)nc3ncnn3c2C)cc1	-10%
Cc1ccc(NC(=O)CSCCc2ccccn2)nc1	-4%
CCOc1cc(/C=N/OC(C)=O)ccc1OCc1ccccc1	-10%
COc1ccc(N(C)C(=S)Nc2ccc3nc(C)c(C)nc3c2)cc1	4%
CC(C)(C)c1ccc(CS(=O)CC(O)CO)cc1 (configuration not stated)	3%
COc1ccc(N2CCN(C(=O)CN(c3cccc(Br)c3)S(C)(=O)=O)CC2)cc1	2%
The listing continues:
SMILES	GCN5L2 inh
O=C(COC(=O)c1ccc(S(=O)(=O)C(F)F)cc1)Nc1ccccc1C(=O)NC1CC1	-1%
CCCc1cc(C(F)(F)F)c(C#N)c(=O)[nH]1	-5%
CCCCn1c(N)c(N(CC)C(=O)c2ccc(-c3ccc(Cl)cc3)o2)c(=O)[nH]c1=O	0%
O=C(NCCc1ccc(F)cc1)C1CCCCC1	19%
COc1ccc(-c2nc(CNS(=O)(=O)c3ccc(OC)c(OC)c3)cs2)cc1	-7%
Cc1cccc(NC(=O)C(C)N2C(=O)c3ccccc3S2(=O)=O)n1 (configuration not stated)	0%
CCCN(CCO)Cc1ccc2ccccc2c1	-2%
CCCCc1nnc(NC(=O)C(C)Sc2nc(N)cc(=O)[nH]2)s1 (configuration not stated)	0%
CC1CCc2cc(F)ccc2N1C(=O)CSc1nnc2c3cc(F)ccc3n(C)c2n1 (configuration not stated)	30%[activator]
CC(C)C(C(=O)Nc1nccs1)c1ccccc1 (configuration not stated)	-4%
O=C(NCCCCCc1nc2ccccc2[nH]1)c1ccccc1Cl	3%
COc1cccc(NC(=O)CN(C)C(=O)c2c(C)nn(-c3ccccc3)c2Cl)c1	-3%
Cc1noc(C)c1S(=O)(=O)N(C)C[C@H]1Oc2c(NC(=O)C3CCCCC3)cccc2C(=O)N([C@H](C)CO)C[C@@H]1C	-10%
Cn1nnnc1SCCCNCc1ccccc1OCc1ccccc1F	0%
O=C(NCC(c1cccnc1)N1CCOCC1)NC1CCCCC1 (configuration not stated)	-4%
COc1ccc(-c2nc(CSCC(=O)NCCc3ccc(OC)c(OC)c3)c(C)o2)cc1	-9%
CC(=O)/C=C(\C)NCCNc1c(F)c(F)c(CO)c(F)c1F	-1%
COc1cccc(CN(C)C(=O)c2sccc2-c2ccccc2)c1OC	-4%
Cc1ccc(C)c(NC(=O)C2CC(Cl)=CCC2C(=O)O)c1 (configuration not stated)	2%
Cc1nnc(SCC(=O)Nc2ccc(Cl)cn2)s1	-1%
Nc1nc(N2CCN(Cc3ccccc3)CC2)n[nH]1	-6%
COc1ccc(Cl)cc1NC(=O)c1cccc(NC(=O)CCC(=O)O)c1	-6%
COc1ccc(C(=O)NC(NC(=O)c2ccc(OC)c(OC)c2)c2ccccc2F)cc1OC	-7%
COc1cc(C(=O)N2CCN(C(=O)COc3ccc4ccccc4c3)CC2)cc(OC)c1OC	-4%
O=c1sc(Nc2ccccc2)nc2ccccc12	-5%

Gathered by group: the entries above containing fluorine.
SMILES	GCN5L2 inh
O=C(CCn1c(=O)c2cccn2c2ccc(F)cc21)NCCc1ccccc1Cl	-8%
O=C(Nc1cccc(C(=O)N2CCN(c3ccc(F)cc3)CC2)c1)c1nsc2ccccc12	-14%
O=c1c(Cl)c(NCc2ccc(F)cc2Cl)cnn1C12CC3CC(CC(C3)C1)C2	-18%
CCOC(=O)c1sc(Nc2nc3c(F)cccc3s2)cc1C	-2%
Cc1nn(CC(=O)NCc2cccc(F)c2)c(=O)c2c(C)n(-c3ccc(Cl)cc3)nc12	-4%
Cc1cc(C)nc(NS(=O)(=O)c2ccc(NC(=O)COc3ccccc3F)cc2)n1	-3%
CC(Nc1ccccc1)C(=O)Nc1ccc(F)cc1 (configuration not stated)	-2%
CCOc1ccccc1NS(=O)(=O)c1c(C(=O)OC)sc2cccc(F)c12	-18%
Cc1ccc(-n2cc(-c3ccccc3)[nH]c2=O)cc1F	1%
CCOC(=O)c1cnn2c(C(F)(F)F)cc(-c3ccco3)nc12	?
O=C(Nc1ccc2c(c1)OCO2)C1CCCN1C(=O)Nc1cccc(F)c1 (configuration not stated)	-6%
O=C(COC(=O)c1ccc(S(=O)(=O)C(F)F)cc1)Nc1ccccc1C(=O)NC1CC1	-1%
CCCc1cc(C(F)(F)F)c(C#N)c(=O)[nH]1	-5%
O=C(NCCc1ccc(F)cc1)C1CCCCC1	19%
CC1CCc2cc(F)ccc2N1C(=O)CSc1nnc2c3cc(F)ccc3n(C)c2n1 (configuration not stated)	30%[activator]
Cn1nnnc1SCCCNCc1ccccc1OCc1ccccc1F	0%
CC(=O)/C=C(\C)NCCNc1c(F)c(F)c(CO)c(F)c1F	-1%
COc1ccc(C(=O)NC(NC(=O)c2ccc(OC)c(OC)c2)c2ccccc2F)cc1OC	-7%

More entries
SMILES	GCN5L2 inh
O=C(NC1CCCCC1)c1cc(-c2cccc(Cl)c2)on1	-7%
Cc1cc(C)c2cc3c(N)c(C(=O)N4CCc5ccccc5C4)sc3nc2c1	-2%
Cc1ccc(C)c(CN2C(=O)c3ccccc3S(=O)(=O)c3ccc(C(=O)N4CCCCC4)cc32)c1	-7%
O=C(O)CCc1nc2cc(Cl)ccc2n(Cc2ccccc2)c1=O	-6%
CCOC(=O)c1cccc(NC(=O)CNC(=O)C2CCCCC2)c1	-11%
CCC(CO)Oc1cc(NC(=O)c2ccc([N+](=O)[O-])cc2)c2ncn(C(C)C)c2c1 (configuration not stated)	2%
CSc1nncc(-c2ccc(F)cc2)n1	2%
COc1ccc(NC(=O)CSc2nc3ccccc3n2CC(=O)NCc2ccc(F)cc2)cc1	19%
NC(N)=NS(=O)(=O)c1ccc(N)cc1	0%
CCCNC(=O)Nc1cccc(NC(C)=O)c1	1%
O=C(COc1ccccc1Cl)Nc1cc(Cl)ccc1O	11%
CCCS(=O)(=O)N1CCC(C(=O)NCc2ccco2)CC1	2%
CCCCN1C(=O)N(c2nnc(C(C)(C)C)s2)C(O)C1c1ccc(C)cc1 (configuration not stated)	1%
COc1ccc(OC)c(NC(=S)NC(=O)c2ccc(Br)o2)c1	-5%
O=C(N/N=C/c1cccnc1)c1sc2ccccc2c1Cl	-4%
OC[C@@H]1CC[C@@H](Cc2ccc(-c3ccccc3)cc2)O1	-3%
O=C(CCNc1n[nH]c(=O)[nH]c1=O)N1CCCCC1	-2%
COc1ccccc1C(=O)OCc1c(F)cccc1Cl	-8%
CCN(CC)c1ccc(CN(C(=O)c2ccco2)C2CCS(=O)(=O)C2)cc1 (configuration not stated)	-4%
Cc1ccc(OCc2ccc(-c3nc(C#N)c(N4CCN(c5cccc(Cl)c5)CC4)o3)o2)cc1	-3%

The list is partial, and most or all hits are left out here.
